Screens: PubChem, National Center for Advancing Translational Sciences (NCATS)
Sfp PPTase inh – Sfp phosphopantetheinyl transferase inhibition; Biochemical Sfp PPTase activity, qHTS; Potency, µM, for the others: max response, negative = inhibition, usual class: inhibitors; 310,000 compounds, 3.5% hits; AID 1490; active = well fitted inhibition curve with a large enough effect; inconclusive = small, poorly fitted or top-dose-only effect, or another doubt; inactive = no such curve, though single readings can be large or run the other way;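 also: the enzyme is Sfp with the accession as filed and its product quenches rhodamine fluorescence; potency is read from the fitted curve at half-maximal effect; 0% = enzyme reaction without inhibitor and -100% = no enzyme wells; top concentration of the series not given in the record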
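Fluorescence-quenching assay: 15 nM Sfp-PPTase preincubated 15 min at room temperature with compound, then 5 uM rhodamine-CoA and 12.5 uM BHQ-2-labelled YbbR peptide added. Fluorescence (ex 525/em 598 nm) read at start and after 30 min; difference gives rate.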
gsp antagonist – antagonizes gsp, the McCune-Albright syndrome mutation | 340,000 compounds, 0.4% hits | Potency, µM (series often up to 76.9 µM), for the others: at the highest dose activity change, negative = inhibition, hits mostly inhibitors | AID 624288 | gsp-mutant cells, cAMP HTRF, 30 min; control for the full effect not named in the record; active = falling curve of any shape with a large fitted effect; inconclusive = falling curve, mostly with a smaller effect; inactive = flat or rising curve; cell line not stated here;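 also: intracellular cAMP measured with PDE inhibitor Ro 20-1724 present during compound exposure; potency is read from the fitted curve at half-maximal effect; % is scaled to controls: 0 for no effect and ±100 for the full control effect; nearly all actives have a fitted effect of over 65% in size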
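HTRF cAMP measurement after 30 min RT detection following 30 min, 37C compound treatment alongside […] (added as 300 uM solution) in G418-selected cells seeded at 2000/well and grown 16–24 h.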
Menin MLL FP FL – displaces fluorescein MLL peptide from human menin | Fluorescence polarization, fluorescein-MLL peptide displacement from menin | AID 1766 | 290,000 tested, under 10 active | FP activity change, % at 61.4 µM; inconclusive = falling polarisation curve, or a change in total fluorescence; inactive = total fluorescence flat and polarisation flat or rising; no compound was filed as active; the % refers to the polarisation; negative = inhibition;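 also: % of control where 0% means no effect; inhibitors lower the polarisation; unlabelled MLL peptide was the positive control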
TRPV1 PAM – potentiators of human vanilloid receptor 1 (TRPV1); potentiation, % at 8.33 µM; 320,000 compounds, 0.02% hits; TRPV1-expressing cells, Fluo-8 calcium influx, capsaicin EC20 potentiation; host cell line not named in the record; control for the full effect not named in the record; active means potentiation above 80%; inconclusive means 30% to 80%; inactive means below 30%; also: 0% is about no effect
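TRPV1-expressing cells were cultured overnight at 35.5C and loaded with Fluo-8 calcium dye for 40 to 90 min at room temperature. After a 10 s baseline, compound was added and calcium influx was read kinetically for 3 min (ex 480/em 520 nm).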
TRPML1 blocker – human mucolipin-1 channel inhibition. Q9GZU1. TRPML1-inducible cells, Ca2+ dye fluorescence, FDSS; active compounds read low; inhibition of EC80 agonist-evoked calcium signal. activity change, negative = inhibition, % (no concentration beside the values). 390,000 compounds, 0.02% hits. AID 624415; in the data active means activity change below about -50%; inconclusive means about -30% to -50%; inactive means above about -30%;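 also: stimulus is agonist 54-4 at its EC80 concentration; % is scaled to controls: 0 for no effect and ±100 for the full control effect; compound concentration not given in the record; the text of the record puts the active cut at -80%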
Target sequence (Q9GZU1 whole entry, looked up): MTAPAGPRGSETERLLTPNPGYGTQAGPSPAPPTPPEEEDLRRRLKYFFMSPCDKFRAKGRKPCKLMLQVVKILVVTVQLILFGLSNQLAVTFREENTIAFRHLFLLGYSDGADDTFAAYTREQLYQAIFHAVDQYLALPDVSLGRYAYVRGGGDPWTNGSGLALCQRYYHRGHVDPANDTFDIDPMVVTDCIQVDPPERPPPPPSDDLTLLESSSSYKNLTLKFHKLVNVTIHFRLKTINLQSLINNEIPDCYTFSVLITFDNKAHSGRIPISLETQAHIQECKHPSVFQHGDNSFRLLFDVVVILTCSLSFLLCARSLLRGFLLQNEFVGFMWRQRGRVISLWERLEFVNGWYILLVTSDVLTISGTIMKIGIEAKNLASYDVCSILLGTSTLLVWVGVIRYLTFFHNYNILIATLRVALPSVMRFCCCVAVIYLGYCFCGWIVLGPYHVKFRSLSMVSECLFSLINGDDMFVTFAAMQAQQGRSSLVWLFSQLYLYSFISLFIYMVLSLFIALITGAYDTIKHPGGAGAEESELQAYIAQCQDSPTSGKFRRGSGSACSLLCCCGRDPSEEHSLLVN
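TRPML1-DL cells, Tet-induced overnight (~16 h, 37 °C) at 1,500 cells/well, were loaded with Ca8 no-wash dye plus quencher for 45-90 min at room temperature. Compounds were pinned during FDSS kinetic reading; agonist 54-4 at EC80 (4 uM final) then added.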
gsp agonist – activates gsp, the McCune-Albright syndrome mutation; gsp mutant cells, cAMP HTRF, 30 min; control for the full effect not named in the record; Potency, µM (top dose mostly 76.9 µM), without a hit: at the top dose activation (cAMP increase), most hits filed as activators; 340,000 compounds, 0.13% hits; active = well fitted activation curve with a large enough effect; inconclusive = small, poorly fitted or top-dose-only effect, or another doubt; inactive = no such curve, though single readings can be large or run the other way; cell line not stated here;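 also: phosphodiesterase inhibitor Ro 20-1724 added with compounds to block cAMP breakdown; potency is read from the fitted curve at half-maximal effect; nearly all actives have a fitted effect of over 60% in size; about a fifth of the inactives were tested at one dose only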
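Cells stably selected in G418 were plated at 2000/well, grown 16-24 hr, then given compounds in DMSO with the PDE inhibitor […] (300 uM solution added) for 30 min at 37C; cAMP was read by HTRF.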
ClpP mod – qHTS Assay for Activators of ClpP. ATP-dependent Clp protease proteolytic subunit (Bacillus subtilis (strain 168)), P80244. purified B. subtilis ClpP, FRET peptide cleavage, 20 min. Potency, µM (doses to about 57.5 µM), for the others: at the top dose activity change, negative = active. 340,000 compounds, 1.9% hits. AID 651965, 2013; active = well fitted falling curve with a large enough effect; inconclusive = small, poorly fitted or top-dose-only effect; inactive = no such curve, though single readings can be large or run the other way; also: potency is read from the fitted curve at half-maximal effect; the source files actives as falling curves though it sought activators and does not explain the sign; nearly all actives have a fitted effect of over 65% in size; many hits overshoot -100%
Target sequence (P80244 whole entry, looked up): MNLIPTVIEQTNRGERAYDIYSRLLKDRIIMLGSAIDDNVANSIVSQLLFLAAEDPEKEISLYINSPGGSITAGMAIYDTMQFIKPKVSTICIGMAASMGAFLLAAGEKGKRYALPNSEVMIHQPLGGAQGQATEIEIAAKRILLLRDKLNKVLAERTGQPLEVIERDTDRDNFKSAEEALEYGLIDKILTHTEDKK
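Buffer: 100 mM Tris/HCl pH8, 100 mM KCl, 0.05% low protease BSA, 2.5% glycerol, 0.01% Tween-20. ClpP 10 microg/mL final; 20 min RT; delta FRET normalized to ADEP and DMSO controls.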
Starred values were filed as active, the others as inactive; ? = inconclusive; . = not tested or not shown; & = joins results of further samples; [ ] = another dose, or the depositor's remark. Rows are unselected; overall some 4.9% were active at least once.

Every second line gives: Sfp PPTase inh	gsp antagonist	Menin MLL FP FL	TRPV1 PAM	TRPML1 blocker	gsp agonist	ClpP mod
CCCNC(=O)C(Cc1ccc(C(F)(F)F)cc1)NC(=O)c1ccc2ccccc2n1 (configuration not stated)
 : .	0%	.	-20	23	-26%	-1.2%
CCN(c1ccc(NC(=O)COC(=O)/C=C/c2cccs2)cc1)C(C)C
 : 14%	-13%	-5.0	-2	-3	-2%[15.4 µM]	.
CC(=O)c1ccc(OCC(=O)N(C)C2CCS(=O)(=O)C2)cc1 (configuration not stated)
 : .	.	.	.	-8	-51%[inhibitor]	3.0%
O=C(Nc1cccc(NC(=O)c2cccs2)c1)c1cccnc1
 : 10%	-5%	3.5	3	-1	-3%	.
COc1ccc(CCC(=O)Nc2ccc(S(=O)(=O)N3CCOCC3)cc2)cc1OC
 : .	.	.	.	-3	-14%	-4.5%
CC1CCN(Cc2nc3c(c(=O)n(C)c(=O)n3C)n2CCCc2ccccc2)CC1
 : 14%	-6%	-1.7	3	17	16%	-27%
Cc1ccc(NC(=O)CN2C(=O)NC3(CCCCCCC3)C2=O)cc1C
 : .	9%	.	-10	-10	25%	-3.5%
CCOC(=O)C1CCN(C(=O)c2cccc(NC(=O)C(CC)CC)c2)CC1
 : 7%	-3%	-0.7	-10	-9	-2%	-0.9%
COc1cccc(C2C(C(=O)Nc3nc4ccccc4s3)=C(C)NC3=C2C(=O)CC(C)(C)C3)c1OC (configuration not stated)
 : 7%	-15%	13	18	3	8%	383%
COc1ccc(/C=C2\SC(=O)N(CC(=O)Nc3ccccc3O)C2=O)cc1OC
 : 2%	-11%	5.2	11	13	24%	56%
COc1ccc(Cl)cc1NC(=O)CN(C)C(=O)c1cc(-c2ccncc2)nc2ccccc12
 : .	-33%	.	-18	-7	-2%[15.4 µM]	-5.2%
Cn1c(SCc2cccc(F)c2)nnc1-c1ccncc1
 : 13%	-4%	8.3	-3	-5	3%	.
Cc1cccc(N(CC(=O)N2CCCC2)S(C)(=O)=O)c1
 : 1%	4%	-0.7	17	.	-22%	0.4%
Cc1ccc(Cl)cc1NC(=O)c1ccc(NC(=O)CCC(=O)O)cc1
 : 9%	-2%	7.5	8	-9	-71%[inhibitor]	2.7%
CCOC(=O)CN(Cc1ccccc1)C(=O)OC(C)(C)C
 : 8%&-7%	.	0.5&-0.2	-24	21	.	.
CCOC(=O)CC1=NN(c2ccccc2)C(=O)/C1=C\c1ccc(N(C)C)cc1
 : 7%	-26%	4.4	5	3	9%	-0.2%
O=C(C1CC1)N1CCCC(c2ccc(Cl)cc2)=N1
 : ?	-18%	-0.6	-12	-6	-56%[inhibitor]	.
COc1ccc(C)cc1N/C(N)=N/c1nc(C)cc(C)n1
 : -19%	-15%	8.4	-18	0	-28%	-2.8%
CN(C)c1ccc(-c2nc3ccccc3c(=O)[nH]2)cc1
 : -4%	0%	0.9	-14	2	30%	?
CC(C)(C)OC(=O)N(CCc1ccccc1)Cc1cccc(OCc2cccc(NC(=O)C3CCCC3)c2)c1
 : .	2%	.	.	14	.	-1.2%
CC(C)=CCC/C(C)=C/CNC(=O)C[C@H]1C[C@H](C(=O)N(C(C)C)C(C)C)[C@@]2(C)c3[nH]c4cc(-c5ccco5)ccc4c3CCN2C1=O
 : .	-5%	.	.	-9	.	3.5%
Cc1ccc(/C=N/NC(=O)CCCOc2ccc(Cl)cc2Cl)cc1
 : 19%	7%	-0.4	-15	1	-4%	-14%
Cc1cc(C)n(-c2ccc(C(=O)OCC(=O)c3ccc(Br)s3)cc2)n1
 : -3%	30%	9.5	9	17	?	-0.3%
Cc1ccc(/C=C/S(=O)(=O)NCC(=O)OCC(=O)NCc2ccccc2)cc1
 : 16%	-29%	1.8	7	-14	-7%	-3.1%
O=C(NCCCN1CCN(c2cccc(Cl)c2)CC1)c1ccc(N2CCCC2=O)cc1
 : 8%	16%	5.9	-5	21	19%	0.5%
O=C(Nc1cccc(F)c1)c1ccc2c(c1)OCCO2
 : 12%	-9%	-2.1	-3	9	6%	.
Cn1c(CNC(=O)CNC(=O)c2cccc(Cl)c2)cc(=O)n(C)c1=O
 : 1%	12%	-1.4	-6	-4	-6%	.
COCCn1c(C)cc(/C=C2/SC(=O)N(C(C)C(=O)OC)C2=O)c1C (configuration not stated)
 : 5%	0%	2.3	0	-17	-26%	1.6%
Cc1ccc(/C=C/C(=O)NC(=S)N2CCN(C)CC2)cc1
 : 0%	12%	-0.9	-7	16	9%	1.5%
CCOC(=O)/C(=C/c1ccc(Cl)cc1)NC(=O)c1ccco1
 : 7%	11%	2.7	-7	-1	1%	0.2%
CCOc1ccccc1/C=N/NC(=O)CNC(=O)COc1ccccc1
 : 13%	-9%	?	15	1	-1%[15.4 µM]	-1.9%
CN(C)CC(=O)Nc1cc(C(F)(F)F)ccc1Cl
 : -15%	12%	0.5	?	-16	16%	0.0%
Cc1ccccc1NC(=O)c1nn(C)c2c1CS(=O)(=O)c1ccccc1-2
 : 6%	6%	.	-14	7	-17%	13%
Cc1cc2cc(CNC(=O)CCC(=O)O)ccc2[nH]1
 : 16%	9%	-2.0	7	-6	7%	-4.3%
CC(C)(C)[C@H]1C=C(C(N)=O)O[C@@H](OCc2ccc(CO)cc2)C1
 : 4%	-1%	1.4	10	-15	.	1.0%
O=c1oc2ccccc2c(NC(c2ccccc2)c2ccccc2)c1[N+](=O)[O-]
 : 3%	-20%	2.9	0	30	4%	-1.8%
CCN1CCN(C(=O)C2CCC(CNS(=O)(=O)c3ccc(NC(C)=O)cc3)CC2)CC1 (configuration not stated)
 : 8%	3%	.	?	-1	8%	-0.6%
N#Cc1nc(Cc2cccc3ccccc23)oc1NCc1ccco1
 : ?	?	3.0	-6	-2	-11%	0.5%
COCC1CCN(C(=O)c2cc(COc3ccc(OC)c4ccccc34)on2)C1 (configuration not stated)
 : .	-10%	.	.	13	-5%	-4.4%
COc1cc(C2Oc3ccccc3C=C2[N+](=O)[O-])cc(OC)c1OC (configuration not stated)
 : ?	-20%	1.3	-8	23	-21%	-1.0%

An excerpt from above in order of their number in TRPML1 blocker, largest number first.
smiles | TRPML1 blocker
O=C(NCCCN1CCN(c2cccc(Cl)c2)CC1)c1ccc(N2CCCC2=O)cc1 | 21
Cc1cc(C)n(-c2ccc(C(=O)OCC(=O)c3ccc(Br)s3)cc2)n1 | 17
COCC1CCN(C(=O)c2cc(COc3ccc(OC)c4ccccc34)on2)C1 (configuration not stated) | 13

(further entries)
Every second line gives: Sfp PPTase inh	gsp antagonist	Menin MLL FP FL	TRPV1 PAM	TRPML1 blocker	gsp agonist	ClpP mod
COc1ccc(O)c(C(=O)CC(=O)c2ccccc2)c1
 : -19%	.	4.3	1	.	.	.
Cc1nc(N2CCC(C)CC2)c2nnn(Cc3ccccc3)c2n1
 : ?	-18%	1.6	-7	-9	-15%	-2.6%
O=C(CCn1c(=S)[nH]c2ccccc2c1=O)Nc1cccc(Cl)c1
 : 8%	-3%	.	8	1	-3%	-0.4%
Cc1ccc(CNC(=O)c2nn(C)c3c2CS(=O)(=O)c2ccccc2-3)cc1
 : 10%	-14%	.	6	-1&33	10%	-8.6%&-11%
CC(=O)N1CCc2cc(S(=O)(=O)N3CC(C)CC(C)C3)ccc21 (configuration not stated)
 : -4%	12%	.	-15	0	?	-1.2%
CCOc1ccccc1C(=O)N[C@H](C(=O)OCc1cc(=O)oc2cc(C)ccc12)C(C)C
 : 8%	-19%	2.6	-3	-29	-1%	-25%
COc1ccc(C2=NOC3(CC(=O)N(c4ccc(F)cc4)C3=O)C2)cc1 (configuration not stated)
 : 1%	1%	5.3	4	-4	29%	.
O=C(COc1ccc(S(=O)(=O)N2CCOCC2)cc1)NCc1ccccc1
 : 7%	13%	.	?	4	-13%[15.4 µM]	1.5%
CC(=O)OC[C@H]1O[C@@H](Sc2cccc3cccnc23)[C@H](OC(C)=O)[C@@H](OC(C)=O)[C@@H]1OC(C)=O
 : 4%	12%	1.9	7	-6	-2%[15.4 µM]	14µM*
Cc1ccc(NC(=O)CCS(=O)(=O)c2ccc3c(c2)NC(=O)C(C)S3)nc1 (configuration not stated)
 : 15%	2%	.	13	3	-10%	-1.6%
CCOC(=O)c1nnc(-c2ccc(C)cc2)nc1Sc1cccc(Cl)c1
 : 12%	-17%	-1.1	-6	10	-19%	-0.7%
COc1ccc(C(c2oc(CO)cc(=O)c2O)c2oc(CO)cc(=O)c2O)cc1OC
 : -33%	8%	6.1	6	9	-11%	.
N#C/C=C(/c1ccc(F)cc1)N1CCOCC1
 : 5%	-1%	4.0	-6	-14	-1%	-1.7%
CN(C)S(=O)(=O)c1cccc(-c2nn(-c3ccccc3)cc2/C=C(\C#N)c2nc3ccccc3[nH]2)c1
 : 4%	-1%	16	2	-5	2%	-5.1%
CSCC[C@H](NC(=O)C1CCN(S(=O)(=O)c2ccc(C)cc2C)CC1)c1nc2ccccc2[nH]1
 : .	-18%	.	.	5	-4%	-0.3%
c1ccc2c(N3CCCCCC3)nc(-c3ccncc3)nc2c1
 : -15%	-10%	0.3	-8	4	0%	-2.5%
Cc1cc([N+](=O)[O-])nn1CCCC(=O)Nc1cc(Oc2ccc(F)cc2)cc([N+](=O)[O-])c1
 : 7%	2%	3.8	28	0	7%	-24%
CN(/C(=N\S(=O)(=O)c1ccccc1)c1ccccc1)c1ccc(O)cc1
 : 0%	3%	1.6	?	9	?	1.3%
CCOC(=O)C(=O)/C(=C\N(C)C)c1onc(-c2c(F)cccc2Cl)c1C(=O)OC
 : 21%	0%	4.1	6	0	-39%	5.7%
